LASV entry inh: Lassa virus entry inhibition. Lassa virus pseudotype entry inhibition, cell reporter; control for the full effect not named in the record. Potency, µM (doses to about 37.9 µM), without a hit: at the top dose activity change, negative = inhibition, usual class: inhibitors. 1.2% of 300,000 active; active means well fitted inhibition curve with a large enough effect; inconclusive means small, poorly fitted or top-dose-only effect, or effect the other way; inactive means flat fitted curve, though single readings scatter; tested in HEK293 cells; note: % is set by controls: 0 for no effect and ±100 for the full control effect; nearly all actives have a fitted effect of over 50% in size; luciferase read-out
Cruzain inh noDet: inhibitors of Trypanosoma cruzi cruzain without detergent; purified cruzain, Z-FR-AMC fluorescence, no detergent; AID 1476; P25779; Potency, µM, for the others: max response, negative = inhibition, actives largely listed as inhibitors; 2.3% of 200,000 active; active = well fitted curve in the direction sought with a large enough effect; inconclusive = small, poorly fitted or top-dose-only effect, or another doubt; inactive = no such curve, though single readings can be large; an effect the other way counts as inactive or inconclusive;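 note: plate controls were enzyme without inhibitor for no effect and buffer without enzyme for full effect; nearly all actives have a fitted effect of over 40% in size; top concentration of the series not given in the record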
Target sequence (P25779 123-467 limits assumed): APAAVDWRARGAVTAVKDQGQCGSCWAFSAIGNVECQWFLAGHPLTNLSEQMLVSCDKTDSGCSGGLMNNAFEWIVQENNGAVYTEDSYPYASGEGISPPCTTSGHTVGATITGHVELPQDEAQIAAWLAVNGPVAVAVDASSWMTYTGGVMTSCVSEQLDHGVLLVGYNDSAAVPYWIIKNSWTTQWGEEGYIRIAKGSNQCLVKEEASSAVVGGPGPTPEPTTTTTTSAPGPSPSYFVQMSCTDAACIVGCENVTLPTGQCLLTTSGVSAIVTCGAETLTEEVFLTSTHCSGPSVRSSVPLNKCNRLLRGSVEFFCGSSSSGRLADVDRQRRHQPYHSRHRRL
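Purified cruzain at 1.5 nM, pre-incubated 15 min with compound at room temperature in 100 mM sodium acetate pH 5.5, 5 mM DTT, 0.00005% Triton X-100. Reaction started with 2 uM Z-FR-AMC; AMC fluorescence increase over 60 s gives rate.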
MARV entry inh: Marburg virus entry inhibition | Marburg virus pseudotyped entry inhibition, cell reporter; control for the full effect not named in the record; about a third of the inactives were read at about 46 µM | Potency, µM (doses to about 37.8 µM), for the others: at the top dose activity change, negative = inhibition, hits mostly inhibitors | 1.8% of 300,000 active; active = well fitted inhibition curve with a large enough effect; inconclusive = small, poorly fitted or top-dose-only effect, or effect the other way; inactive = flat fitted curve, though single readings scatter; tested in HEK293 cells; about a fifth of its hits are not listed in these tables; note: % is set by controls: 0 for no effect and ±100 for the full control effect; luciferase read-out
Cruzain inh Det: inhibitors of Trypanosoma cruzi cruzain with detergent | P25779 | purified cruzain, Z-FR-AMC fluorescence, 0.01% Triton | Potency, µM, inactives show max response, negative = inhibition, actives largely listed as inhibitors | 0.43% of 200,000 active | AID 1478; active = well fitted curve in the direction sought with a large enough effect; inconclusive = small, poorly fitted or top-dose-only effect, or another doubt; inactive = no such curve, though single readings can be large; an effect the other way counts as inactive or inconclusive;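 note: plate controls were neutral wells for no effect and buffer without enzyme for full effect; nearly all actives have a fitted effect of over 40% in size; top concentration of the series not given in the record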
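Cysteine protease activity tested under reducing, mildly acidic conditions (100 mM sodium acetate pH 5.5, 5 mM DTT) plus 0.01% Triton X-100. Cruzain 1.5 nM; substrate Z-FR-AMC 2 uM; 15 min compound preincubation at room temperature.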
NS1 function inh: blocks influenza NS1 protein function | S. cerevisiae slowed by influenza A NS1, growth recovery by OD600 | Potency, µM (highest dose often 46.1 µM), inactives show at the top dose activity, positive = more growth | 0.4% of 270,000 active; note: actives are rising curves; nearly all actives have a fitted effect of over 50% in size
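In this qHTS, NS1 from influenza A is expressed in budding yeast, where it slows growth. Cells are switched from glucose to 2% galactose medium (pH 6.0, -URA), treated with compound, and growth recovery is read at OD600.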
SARS PLpro yeast: blocks SARS-CoV papain-like protease in a yeast assay | AID 485353 | S. cerevisiae expressing SARS-CoV PLpro, growth rescue; control for the full effect not named in the record | Potency, µM (series often up to 32.9 µM), for the others: at the top dose activity, positive = growth rescue | 0.19% of 330,000 active; note: 0% is about no effect; nearly all actives have a fitted effect of over 55% in size; growth read by luminescence after 48 h
RE007 growth inh: less growth of the S. pombe RE007 Vpr strain. S. pombe RE007 Vpr strain, BacTiter-Glo ATP luminescence, 24 h; control for the full effect not named in the record. AID 651644. 0.21% of 360,000 active. Potency, µM (series often up to 92.2 µM), for the others: at the highest dose activity change, negative = less growth; active = well fitted falling curve with a large enough effect; inconclusive = small, poorly fitted or top-dose-only effect; inactive = no such curve, though single readings can be large or run the other way;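 note: % is set by controls: 0 for no effect and ±100 for the full control effect; nearly all actives have a fitted effect of over 50% in size; the assay follows cell death caused by Vpr and the record does not say whether a fall means rescue or toxicity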
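Fission yeast strain RE007, carrying one chromosomally integrated HIV-1 vpr copy, was seeded at OD 0.01 in PMG+AL medium with 23 nL pinned compound. After 24 h at 30 °C and 99% humidity, viability was read by BacTiter-Glo luminescence.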
StopGo reporter: FMDV 2A StopGo reporter, luciferase signal; AID 1159524; Potency, µM (top dose mostly 57.9 µM), inactives show at the top dose signal change, negative = less light; 1.2% of 410,000 active; human cells with a luciferase reporter of 2A StopGo recoding; control for the full effect not named in the record; active = well fitted falling curve with a large enough effect; inconclusive = small, poorly fitted or top-dose-only effect; inactive = no such curve, though single readings can be large or run the other way; tested in HEK293T cells; note: % is set by controls: 0 for no effect and ±100 for the full control effect; nearly all actives have a fitted effect of over 45% in size; luciferase light after 4 h
Numbers without * were called inactive; ? = inconclusive; . = not tested or not shown; [ ] = dose if it differs, or a comment. Unless noted, calls come from the whole dose curve; as a rule, active means well fitted rising curve with a large enough effect; inconclusive means small, poorly fitted or top-dose-only effect; inactive means no such curve, though single readings can be large or run the other way. Potency is the fitted concentration of half-maximal effect. Compounds as they come (roughly 4.7% active in at least one column).

#	mol	LASV entry inh	Cruzain inh noDet	MARV entry inh	Cruzain inh Det	NS1 function inh	SARS PLpro yeast	RE007 growth inh	StopGo reporter
1	Cc1cc(CNC(=O)C2CCC(=O)N(Cc3cccc(C(F)(F)F)c3)C2)no1 (configuration not stated)	-3%	.	?	.	13%	-1%	-17%	-13%
2	CCN(CC)CCC(c1cc(OC)c(OC)c(OC)c1)c1c(OC)cc(OC)c2c(C)cc(=O)oc12 (configuration not stated)	.	.	.	.	0%	3%	-11%	-9%
3	C(=N\Nc1nc(Nc2ccccc2)nc(N2CCOCC2)n1)/c1c[nH]c2ccccc12	?	-8%	0.073µM*	-9.5%	-42%	-6%	-7%	3%
4	O=C(CSc1nnc(-c2ccccn2)n1Cc1ccccc1)N1CCOCC1	6%	.	5%	.	1%	0%	5%	-9%
5	C=CCn1c(C)cc(-c2csc(NC(=O)CCc3nc4ccccc4c(=O)[nH]3)n2)c1C	-4%	.	-11%	.	.	-4%	-7%	?
6	Cc1ccc(Cl)cc1NC(=O)Cn1c(=O)n(Cc2ccc(C(=O)NCc3ccc4c(c3)OCO4)cc2)c(=O)c2ccccc21	?	-22%	-7%[46.1 µM]	-2.2%	.	.	.	-9%
7	O=C(CSc1nccn1-c1ccccc1)NCc1ccc2c(c1)OCO2	-3%	4%	?	3.5%	-7%	2%	21%	-29%
8	COC(/C(=N/O)c1ccc(Cl)cc1)c1ccccc1 (configuration not stated)	?	.	?	.	-38%	-9%	23%	-8%
9	Cc1ccc(S(=O)(=O)NCCC(=O)N2CCCCC2)cc1	.	5%	.	0.9%	1%	-6%	.	.
10	Cc1ccc(CC(=O)c2ccc(Cl)cc2)cc1	3%[46.1 µM]	.	?	.	8%	0%	-27%	37%[activator]
11	CC(=O)c1ccc(NC(=O)c2ccc(-n3cnnc3)cc2)cc1	14%[46.1 µM]	-2%	.	-0.8%	.	.	.	-11%
12	CCOc1c(Br)ccc2c1sc1nc[nH]c(=O)c12	?	-16%	-21%	-3.9%	-69%	-11%	-21%	-30%
13	O=C(OCc1cc(=O)oc2cc(O)ccc12)c1cc(S(=O)(=O)N2CCOCC2)ccc1F	-4%	.	?	.	.	2%	-16%	-29%
14	CC(C)CCN1CCN(Cc2cccc(C(F)(F)F)c2)CC1CCO (configuration not stated)	.	.	.	.	0%	-2%	24%	-22%
15	O=S(=O)(NCCCN1CCOCC1)c1ccc2c(c1)OCCO2	1%	.	?	.	.	1%	-5%	-2%
16	Cc1ccc(CN(C(=O)C(F)(F)F)C(C(=O)NC2CCCCC2)c2ccco2)cc1 (configuration not stated)	?	-1%	?	-14%	-2%	-40%	-7%	-16%
17	CC(CC(=O)Nc1ccc(F)cc1F)S(=O)(=O)c1ccc2c(c1)NC(=O)CO2 (configuration not stated)	0%[46.1 µM]	.	-5%[46.1 µM]	.	-9%	-3%	13%	-16%
18	O=C(CNC(=O)c1ccccc1)NCCCSc1ccccc1	2%	.	0%	.	.	-8%	13%	39%[activator]
19	Cc1cc2cc(OCC(=O)O)ccc2n1C	-7%	2%	9%	-2.1%	26%	16%	7%	-6%
20	Nc1c(C(=O)NCCN2CCOCC2)c2nc3ccccc3nc2n1CCc1ccccc1F	-4%	15%	?	-5.6%	-86%	0%	3%	.
21	Cc1ccc(C(=O)OCC(=O)N(C)c2c(N)n(Cc3ccccc3)c(=O)[nH]c2=O)s1	4%	.	-8%[46.1 µM]	.	.	0%	-3%	0%
22	COc1ccc(NCC(=O)N2CCCC2)cc1Cl	?	.	?	.	.	4%	-10%	34%[activator]
23	O=c1c(C/C=C/c2ccccc2)c(O)ccn1CCc1c[nH]c2ccccc12	?	.	-24%[46.1 µM]	.	26%	5%	-12%	15%
24	CCN1C/C(=C/c2sccc2C)c2nc3ccccc3c(C(=O)O)c2C1	.	.	.	.	2%	-3%	-4%	-12%

The final 2 entries of the section above open the next one:
#	mol	LASV entry inh	Cruzain inh noDet	MARV entry inh	Cruzain inh Det	NS1 function inh	SARS PLpro yeast	RE007 growth inh	StopGo reporter
23	O=c1c(C/C=C/c2ccccc2)c(O)ccn1CCc1c[nH]c2ccccc12	?	.	-24%[46.1 µM]	.	26%	5%	-12%	15%
24	CCN1C/C(=C/c2sccc2C)c2nc3ccccc3c(C(=O)O)c2C1	.	.	.	.	2%	-3%	-4%	-12%
25	O=C(Nc1ccc(NC(=O)c2cccs2)cc1Cl)c1ccco1	7%	.	23%[46.1 µM]	.	.	-3%	9%	33%[activator]
26	O=C(Nc1ccccc1Br)c1ccc(OC(=S)N2CCOCC2)cc1	1%	.	?	.	2%	0%	-3%	41%[activator]
27	CN(c1ccc(F)cc1)S(=O)(=O)N1CCCC(C(=O)NCCc2ccccc2)C1 (configuration not stated)	-29%[46.1 µM]	6%	.	-1.2%	.	.	.	-14%
28	O=C(Nc1ccc(Oc2ccccc2)nc1)C1CCN(Cc2cccc(F)c2)CC1	-15%	.	?	.	4%	2%	6%	?
29	C=CCOC(=O)C1=C(C)NC(=O)NC1c1cn(-c2ccccc2)nc1-c1cccs1 (configuration not stated)	?	-20%	?	-5.1%	-52%	-25%	-8%	-21%
30	COc1cccc(-c2cn3c(n2)sc2cc(C(=O)NCCCc4ccccc4)ccc23)c1	-15%[46.1 µM]	8%	.	-4.0%	.	.	.	9%
31	CCNS(=O)(=O)c1ccc(CCC(=O)N2CCC(C)CC2)cc1	.	.	.	.	7%	3%	21%	6%
32	O=c1c2cc(NC(=S)N3CCCC3)ccc2nc2n1CCCCC2	1%[46.1 µM]	.	-12%[46.1 µM]	.	5%	3%	10%	22%
33	O=C(c1ccc([N+](=O)[O-])cc1)N(Cc1ccccc1)Cc1ccccc1	?	.	12%[46.1 µM]	.	.	.	-4%	-17%
34	O=C1COc2ccc(C(=O)COC(=O)/C=C/c3cccc(F)c3)cc2N1	.	.	.	.	-2%	1%	11%	?
35	COc1ccc(CCNc2nc(-c3ccccn3)cs2)cc1OC	.	.	.	.	5%	-9%	-25%	-14%
36	CCSC1=NN1c1cc(C)nc(N)n1	.	.	.	.	-2%	-1%	15%	-17%
37	COC(=O)C(NC(=O)C(CC(C)C)NC(=O)C1CCC(C)CC1)C(C)C (configuration not stated)	1%	6%	?	-4.0%	2%	0%	19%	-19%
38	OCCNCc1cc(Br)ccc1OCc1ccccc1	-20%	-2%	?	-0.6%	-13%	2%	-13%	-25%
39	Cc1cccc(OC(=O)c2cn(C)nc2C(F)(F)F)c1C	-7%	0%	-15%	-3.7%	0%	4%	0%	-4%
40	S=c1sc2c(N3CCOCC3)ncnc2n1-c1ccccc1	.	-16%	.	-1.1%	8%	16%	23%	2%
41	Cc1nc(-c2c(C(=O)NNC(=O)Nc3c(C)cccc3C)noc2C)cs1	-5%	.	16%	.	0%	0%	5%	-10%
42	O=c1cc(CNc2ccc(Br)cc2)nc2sccn12	4%	-2%	?	-2.4%	0%	-33%	-8%	13%
43	O=C(NCc1ccccc1)c1ccco1	-9%	-6%	19%	1.3%	-2%	-26%	-4%	-2%
44	O=C(O)c1ccc(C2CCCCC2)cn1	27%	-6%	16%	1.5%	-31%	-6%	18%	4%
45	O=C(c1ccc(OC2CCN(C(=O)c3cccnc3)CC2)cc1)N1CCCCCC1	1%[46.1 µM]	.	3%[46.1 µM]	.	3%	1%	-3%	-4%
46	COC(=O)Cn1c2ccc(OC)cc2c2nc3ccccc3nc21	-16%	22%	-5%	-1.7%	9%	9%	-4%	20%
47	COc1ccc(CNC(=O)[C@@H](NC(=O)C2CCN(C(=O)[C@@H](N)CCSC)CC2)C(C)C)cc1	.	.	.	.	-5%	-8%	1%	-17%
48	COc1cccc(N(CC(=O)Nc2ccc3c(c2)OCO3)S(=O)(=O)c2ccccc2)c1	?	-30%	?	-1.7%	2%	7%	8%	17%
49	COc1ccc(CC(=O)Nc2nnc(C)s2)cc1	-23%	-12%	-7%[46.1 µM]	4.9%	2%	1%	4%	8%
50	O=C(Nc1ccccc1)Nc1nnc(/C=C/c2ccccc2Cl)s1	-2%	25µM*	?	-4.1%	24%	9%	-6%	-7%
51	O=C(COC(=O)C12CC3CC(CC(C3)C1)C2)Nc1ncc(Cl)cc1Cl	-1%	-7%	3%	-0.7%	-18%	-3%	10%	-5%
52	CCN(/N=C/c1cccs1)c1cc(=O)n(C)c(=O)[nH]1	1%	-24%	?	-10%	-5%	-4%	-7%	-11%
53	Cc1cccc(C2=NN(c3ccccc3)[C@@H](C(=O)N3CCOC3=O)[C@@H]2c2ccc(Cl)cc2)c1	.	22µM*	.	-4.6%	.	-4%	10%	-15%
54	CSc1ccc(CCNC(=O)C2=C(C)C(=O)OC23CCCCC3)cc1	?	-3%	4%[46.1 µM]	-0.9%	.	.	.	-23%
55	COc1ccc(CCNC(=O)C2(C)CCC(=O)N2Cc2ccc(F)cc2Cl)cc1OC (configuration not stated)	17%[46.1 µM]	.	-8%[46.1 µM]	.	-5%	1%	4%	-10%
56	Cn1c2ccccc2c2cnn(CC(=O)N3CCCCC3)c(=O)c21	.	.	.	.	-4%	-5%	7%	32%[activator]
57	Cc1ccccc1NC(=O)Cc1nnc(SCc2ccc(Cl)c(Cl)c2)n1C	-2%	0%	?	6.5%	7%	-5%	-10%	-12%
58	Cn1cnc(S(=O)(=O)NC2CCN(Cc3ccccc3)CC2)c1	?	.	?	.	4%	2%	5%	-9%
59	COC(=O)/C=C1/N/C(=N\c2nc(C)cc(C)n2)N(c2ccc(Cl)cc2)C1=O	-5%	-5%	?	-2.6%	14%	-2%	-4%	?
60	Cc1cc(C)c(S(=O)(=O)CCC(C)C)c(=O)[nH]1	0%[46.1 µM]	.	-1%[46.1 µM]	.	-1%	-1%	-5%	11%
61	CC(=O)c1cccc(NC(=O)C2CCCC2)c1	-10%	2%	-23%	5.5%	-4%	2%	17%	9%
